Sa ugtP lethal – compounds lethal to S. aureus RN4220 ugtP deletion mutant; actives 0.54% (n = 330,000); growth inhibition, % (no concentration beside the values); OD600 growth, 16 h; some inactives read as strong as hits; AID 1259309;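 active = z-score under -3 and OD600 up to 0.15 on both plates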;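 note: plate controls were untreated wells for no effect and antibiotic for full effect; wells of about 80 µL received 100 nL stock; the first replicate is given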
Bead autofluor – counter-screen for toxin protease inhibitors: compound fluorescence; compound autofluorescence counterscreen, microsphere flow cytometry; active compounds read high; fluorescence intensity (no concentration beside the values); actives 3.1% (n = 360,000); AID 624483;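 active = at least 3 SD above the mean of all compounds, about 16000 in these data; inconclusive = too few beads counted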;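 note: 100 nL of 1 mM stock went into each well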
RN4220 kill – S. aureus RN4220 growth inhibition. inhibition, % (no concentration beside the values). OD600, 16 h. actives 0.33% (n = 330,000);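 active = z-score of -3 or lower and OD600 up to 0.18 on both plates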;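 note: plate controls were untreated cells for no effect and reference antibiotic for full effect; stock transfer was 100 nL into about 80 µL; one replicate is shown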
Mtb hypoxia inh – inhibitors of hypoxia-regulated fluorescent reporter in Mycobacterium tuberculosis; M. tuberculosis hypoxia-regulated fluorescent reporter, fluorescence; actives 0.1% (n = 300,000); fluorescence inhibition, % (no concentration beside the values);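 active = 35 to 45% if threefold the growth effect, above 45% if 1.5-fold the growth effect; inactive = the rest, general growth blockers included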;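 note: wells of about 50 µL received 100 nL stock; 0% = vehicle wells and 100% = reference inhibitor wells; whole bacteria with a GFP reporter of the hypoxia response; strong numbers were not always called active; many hits fall short of the cut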
BJeLR lethal – kills HRASV12-expressing BJeLR cells; BJeLR (HRASV12) viability, CellTiter-Glo ATP luminescence, 48 h; reference of the scale not given here; inhibition, % (no concentration beside the values); actives 0.17% (n = 300,000);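 active = replicate mean above 50%; inconclusive = above 50% but judged a plate artefact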;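 note: 50 nL library stock added to about 25 µL; numbers are from one replicate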
PrP 5UTR inh – suppresses PrP 5' UTR mRNA reporter expression | cell-based PrP 5' UTR mRNA reporter, plate reader | inhibition, % (test concentration not listed) | actives 0.35% (n = 340,000);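 active = every replicate at 50% or more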;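 note: 0 = median of the neutral control wells; tested in H4 reporter cells; numbers are from one replicate; inactives centre near -14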
Mtb hypoxia inh growth – second read-out of Mtb hypoxia inh, no call of its own (marks repeat the call); growth inhibition, %; measured here: M. tuberculosis growth (absorbance);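 0% = vehicle and 100% = reference antibiotic; read after six days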
* marks the source's active call; other numbers are inactive results; ? = inconclusive; . = not tested or not shown.

SMILES	Sa ugtP lethal	Bead autofluor	RN4220 kill	Mtb hypoxia inh	Mtb hypoxia inh growth	BJeLR lethal	PrP 5UTR inh
O=C(NCC(c1ccco1)N1CCCCC1)c1cccnc1 (stereo not given)	6.1	6496	3.2	-4.1	-2.1	.	-3.4
CCN(N)C(=S)Nc1ccc(F)cc1	5.8	5080	6.1	8.3	-7.6	3.5	-12.0
CCOCC(=O)Nc1c(C(=O)Nc2ccc3c(c2)OCCO3)oc2ccccc12	-4.6	3451	-0.6	-3.6	0.2	5.1	-46.0
CN(C)CCCN(C(=O)COc1ccccc1)c1nc2cc3c(cc2s1)OCCO3	15.4	5150	2.5	-4.3	-4.6	-10.2	-24.8
CC(=NCC1CCCO1)c1c(O)n(-c2ccc(C)cc2)c(=O)[nH]c1=O (stereo not given)	-0.4	9980	4.1	8.0	14.2	2.9	-30.0
Cc1ccc(-c2ccc(SCC(=O)N3CCc4ccccc43)nn2)cc1	9.9	.	5.4	0.0	11.1	-3.2	.
CC1CC1C(=O)Nc1nc(-c2ccccc2)cs1 (stereo not given)	6.2	2947	9.8	5.5	4.6	-7.0	-40.7
Cc1ccc(-c2nnn3c2nc(NC(C)C)c2ccccc23)cc1	-9.4	3013	-6.3	4.5	1.3	2.7	-12.0
COc1ccc(S(=O)(=O)N2CCCC2C(=O)Nc2nc3c(s2)CCCC3)cc1 (stereo not given)	12.0	4290	0.4	.	.	0.2	-16.6
CCN(CC(=O)NCc1ccc(Cl)cc1)C(=O)CSCC(=O)Nc1ccc(C)cc1	-2.1	6335	-5.8	7.1	-3.4	-6.8	-7.4
CC(=O)Nc1ccc(C(=O)COC(=O)c2cccs2)c(F)c1	-6.0	4073	3.1	-5.5	4.8	.	-66.0
COC(=O)c1ccc(/C=C/C(=O)OCC(=O)NCc2cccs2)cc1	2.0	3673	2.2	8.8	8.4	.	-27.4
COCCn1c(-c2ccc(SC)cc2)nc2c1c(=O)[nH]c(=O)n2CC(C)C	0.6	3613	3.1	5.7	12.1	0.7	-26.0
Nc1c(C(=O)NN=Cc2cccnc2)cnn1-c1ccccc1	-1.5	.	1.1	0.2	-4.4	.	.
Cc1cccc(Oc2ncnc3onc(C)c23)c1C	4.5	3889	-0.2	.	.	-3.3	-11.2
CNc1nc(SCc2ccccc2Cl)nc2c1CCCC2	.	3122	.	.	.	11.3	5.0
CCCNC(=O)CCc1c(C)nc2nc(-c3cc(OC)cc(OC)c3)nn2c1C	4.0	8973	0.6	3.1	8.1	-10.1	-22.9
CCN(CC)S(=O)(=O)c1ccc(OC)c(NC(=O)c2ccc(=O)[nH]c2)c1	-3.6	3549	0.6	-0.2	2.1	9.5	-11.1
Cc1ccc(C23CC4CC(CC(C(=O)N5CCN(C)CC5)(C4)C2)C3)cc1	-0.9	.	3.4	12.5	3.1	0.9	-6.7
CC(=O)C1C(c2cccc(F)c2)NC(=O)NC1(O)C(F)(F)F (stereo not given)	-0.9	2446	-5.6	-4.7	6.5	0.7	-12.6
CC(=O)Nc1ccc(S(=O)(=O)N2CCN(C(=O)c3ccccc3F)CC2)cc1	-7.3	?	-4.8	-10.9	0.7	.	-3.5
CC1CCCC(NC(=O)CCCn2ncn3c(cc4occc43)c2=O)C1C (stereo not given)	1.8	5288	5.6	-0.3	2.0	6.0	-18.8
COC(=O)C1CSc2[nH]c(=O)sc2C1c1ccc(OC)c(OC)c1 (stereo not given)	13.7	2357	-1.5	3.6	1.0	9.9	-2.4
Cc1ccc(NC(=O)COC(=O)C2CCN(c3ccc(C(F)(F)F)cn3)CC2)cc1C	37.2	5484	3.1	8.1	3.4	-10.3	-11.3
O=C(NCc1ccc(C=NNC(=O)C(=O)Nc2ccccc2Br)o1)C(=O)Nc1ccccc1	-2.2	.	5.2	-1.8	0.5	.	.

The list continues.
SMILES	Sa ugtP lethal	Bead autofluor	RN4220 kill	Mtb hypoxia inh	Mtb hypoxia inh growth	BJeLR lethal	PrP 5UTR inh
NC(=O)C1CCN(C(c2ccccc2)c2nnnn2C2CCCC2)CC1 (stereo not given)	9.2	3152	3.4	6.5	6.9	0.1	-16.8
O=S(=O)([N-]c1nc2ccccc2nc1-[n+]1ccc(-c2ccncc2)cc1)c1ccccc1	1.0	2754	0.6	-5.5	1.8	-5.4	-69.5
O=c1c(Cl)c(NCc2ccc(F)cc2)cnn1C12CC3CC(CC(C3)C1)C2	-2.0	9193	2.3	5.3	7.4	-7.9	-20.8
CN(C)CCN=Cc1c(O)n(-c2ccc(S(=O)(=O)N3CCOCC3)cc2)c(=O)c2ccccc12	5.4	5093	3.9	8.8	-7.9	.	-14.5
COc1ccc(CNCc2cc(C)c(OC)cc2C)c(OC)c1	0.2	4069	0.5	-4.5	10.4	-3.9	-7.5
Cc1ccc(S(=O)(=O)CC(=O)Nc2ccc(S(=O)(=O)Nc3onc(C)c3C)cc2)cc1	4.5	9533	5.2	3.9	-0.1	-10.8	1.0
CC(C)[C@H]1CN(C)CCN1Cc1cn(C)nc1-c1cccc(Cl)c1	-8.2	4995	0.5	8.7	-2.2	-0.2	-9.9
CC(C)/C=C1\CCCCC1N(C)C(=O)NC(C)C (stereo not given)	.	3074	.	.	.	-3.6	-11.8
Cn1nnc2cc(C(=O)Nc3cccnc3)ccc21	4.3	3787	4.1	.	.	-4.4	-24.9
O=C(COc1cccnc1[N+](=O)[O-])N1CCc2ccccc21	6.8	2045	7.1	9.5	-1.4	6.9	-25.0
O=C1c2ccccc2-n2c1nc1ccccc1c2=O	53.8	5463	53.7	.	.	-3.9	-45.7
Cc1nnc(SCC(=O)NNC(=O)c2ccccc2)n1N	-0.3	5511	0.0	-7.5	-1.2	.	-3.7
COc1cc2c(cc1OC)C(C1C(=O)CC(C)CC1=O)N(C(=O)CCl)CC2 (stereo not given)	5.0	2572	2.7	10.6	6.2	-1.9	-17.6
CC1CCCCC1NC(=O)C1CCC(CNS(=O)(=O)c2ccccc2)CC1 (stereo not given)	-1.0	3949	-1.0	11.8	8.0	5.4	-10.9
CCOC(=O)N1CCC(NC(=O)c2cccc3c2C(=O)N(CCOC)C3)CC1	-1.3	6547	2.1	2.7	-2.9	6.0	-24.9
Cc1cc(C)c2c(N)c(C(=O)Nc3ccc(F)cc3)sc2n1	-4.5	2949	-3.5	-5.3	-3.5	1.3	-39.6
CCOC(=O)C(=NNC(=O)c1ccccc1)c1ccccc1	14.1	.	3.6	10.3	7.4	.	.
CCc1ccc(C(=O)CCC(=O)Nc2cccc(S(=O)(=O)N3CCCCC3)c2)cc1	7.8	4333	1.6	6.2	-7.4	.	-24.1
CCN(CC)C(=O)C1CC(=O)N(c2ccc(OC)cc2)C1c1ccc(OC)cc1 (stereo not given)	6.6	3052	6.2	20.6	14.8	-11.6	-4.7
COc1ccc(N(C)S(=O)(=O)c2ccc3c(c2)NC(=O)CC(=O)N3)c(OC)c1	-4.9	4034	0.2	6.0	2.0	2.7	-2.0
Cc1c(NC(=O)c2cccc(NC(=O)c3ccco3)c2)cccc1C(=O)O	10.8	5483	7.2	1.5	-4.4	-14.8	-17.1
CCC(=Nc1cc(OC)ccc1OC)c1c(O)[nH]c(=O)[nH]c1=O	-5.5	9688	5.7	-2.3	1.3	-5.4	1.0
Cc1cc(C)nc(Sc2ccc3nnnn3n2)n1	1.8	12692	1.7	5.3	5.1	5.6	-14.4
CC1(C)CC(=O)C(C(=O)c2ccccc2)C(=O)C1Cl (stereo not given)	5.9	3832	5.7	4.2	-1.5	-1.0	-24.4
CCOC(=O)N1CCN(C(=O)c2cc3cc(Cl)ccc3[nH]2)CC1	-2.1	3570	1.4	3.7	5.1	-1.3	-10.8

Carrying on.
SMILES	Sa ugtP lethal	Bead autofluor	RN4220 kill	Mtb hypoxia inh	Mtb hypoxia inh growth	BJeLR lethal	PrP 5UTR inh
O=c1nc(NCc2ccco2)sc2ncccc12	-2.4	5860	1.7	2.3	19.7	15.2	-7.1
O=C(CSc1nnc(Cc2cc(=O)[nH]c(=O)[nH]2)n1-c1ccc(Cl)cc1)NCC1CCCO1 (stereo not given)	-1.2	?	-3.1	0.1	-4.5	.	2.3
Nc1nnc(SCC(=O)Nc2ccccc2N2CCOCC2)s1	3.7	3671	0.2	.	.	-5.3	-5.0
C=CCn1c(O)c(C(C)=NCc2cccnc2)c(=O)[nH]c1=O	1.6	17471*	1.5	2.8	-4.5	0.3	-12.3
COc1ccc(Oc2ccc(/C=N/NC(=O)c3cccnc3)cc2[N+](=O)[O-])cc1	.	4601	.	.	.	6.2	-16.3
Nn1c(SCC(=O)Nc2ccc3c(c2)OCCO3)nncc1=O	-4.2	6328	-6.2	-3.8	-1.1	-7.0	1.2
CCCCOc1ccc(CCN)cc1Cl	-0.4	2761	4.5	13.2	3.0	-7.1	0.1
C/C(=N\O)C1(C)N(O)C(C)(C)C(c2ccco2)=[N+]1[O-] (stereo not given)	.	2645	.	.	.	8.1	-23.0
CCN1C(=O)[C@H]2[C@@H](c3ccc(-c4ccccc4)cc3)N3CCC[C@@]3(C(=O)OC)[C@H]2C1=O	.	2855	.	.	.	-2.8	-3.6
O=C(CSc1nc2ncc(Cl)cc2[nH]1)NC1CCS(=O)(=O)C1 (stereo not given)	1.0	4665	3.9	12.8	4.3	1.1	0.1
Cc1ccc2[nH]c(=O)c(COC(=O)C3CCCCC3)cc2c1	1.9	4904	9.0	0.0	8.8	-3.2	-10.0
CCOC(=O)C1=C(N)OC2=C(C(=O)CC(C)(C)C2)C1c1ccco1 (stereo not given)	6.7	4414	1.9	11.2	1.2	3.9	-5.2
CC(=O)Nc1ccc(S(=O)(=O)N2CCN(Cc3ccccn3)CC2)cc1	13.7	10038	4.8	10.2	17.3	2.8	-32.0
CS(=O)(=O)Nc1cccc(C2=NN(C(=O)c3cccc(F)c3)C(c3cccs3)C2)c1 (stereo not given)	15.2	3088	3.1	5.3	1.3	-13.5	-15.1
CCOC(=O)/C(C#N)=C\c1ccc(N2CCN(C/C=C/c3ccccc3)CC2)cc1	.	4036	.	.	.	3.7	-20.6
O=C(COC(=O)c1ccc(F)c(S(=O)(=O)N2CCOCC2)c1)NC1CC1	1.9	?	0.2	-3.9	2.4	.	-11.2
Cc1cc(OCC(=O)N2CCC(C(=O)O)(c3ccccc3)CC2)c2c(C)c(C)c(=O)oc2c1	3.3	5418	4.6	.	.	-0.3	-27.0

Sorted by count of non-hydrogen atoms (descending): 11 of the compounds above.
SMILES	Sa ugtP lethal	Bead autofluor	RN4220 kill	Mtb hypoxia inh	Mtb hypoxia inh growth	BJeLR lethal	PrP 5UTR inh
Cc1cc(OCC(=O)N2CCC(C(=O)O)(c3ccccc3)CC2)c2c(C)c(C)c(=O)oc2c1	3.3	5418	4.6	.	.	-0.3	-27.0
O=C(CSc1nnc(Cc2cc(=O)[nH]c(=O)[nH]2)n1-c1ccc(Cl)cc1)NCC1CCCO1 (stereo not given)	-1.2	?	-3.1	0.1	-4.5	.	2.3
CCN1C(=O)[C@H]2[C@@H](c3ccc(-c4ccccc4)cc3)N3CCC[C@@]3(C(=O)OC)[C@H]2C1=O	.	2855	.	.	.	-2.8	-3.6
CCOC(=O)/C(C#N)=C\c1ccc(N2CCN(C/C=C/c3ccccc3)CC2)cc1	.	4036	.	.	.	3.7	-20.6
COc1ccc(Oc2ccc(/C=N/NC(=O)c3cccnc3)cc2[N+](=O)[O-])cc1	.	4601	.	.	.	6.2	-16.3
O=C(COC(=O)c1ccc(F)c(S(=O)(=O)N2CCOCC2)c1)NC1CC1	1.9	?	0.2	-3.9	2.4	.	-11.2
CCOC(=O)C1=C(N)OC2=C(C(=O)CC(C)(C)C2)C1c1ccco1 (stereo not given)	6.7	4414	1.9	11.2	1.2	3.9	-5.2
Nc1nnc(SCC(=O)Nc2ccccc2N2CCOCC2)s1	3.7	3671	0.2	.	.	-5.3	-5.0
C=CCn1c(O)c(C(C)=NCc2cccnc2)c(=O)[nH]c1=O	1.6	17471*	1.5	2.8	-4.5	0.3	-12.3
C/C(=N\O)C1(C)N(O)C(C)(C)C(c2ccco2)=[N+]1[O-] (stereo not given)	.	2645	.	.	.	8.1	-23.0
O=c1nc(NCc2ccco2)sc2ncccc12	-2.4	5860	1.7	2.3	19.7	15.2	-7.1
